H5N1 antiviral: antiviral screen in MDCK cells, H5N1 avian flu; inhibition, % at 50 µM; 96,000 tested, 0.07% active; cytopathic effect, luminescence, 72 h; stronger effect = higher value; no value below 0 was filed and about half of the inactive calls have no number; reference of the scale not given here; in the data active = inhibition above about 25%
The depositor's hits bear a star; i = inactive. Only part of the results is shown, so the mix of outcomes need not match the whole.

SMILES	H5N1 antiviral
COc1ccc(/C=C2\CCCC(C(=O)C(F)(F)F)=C2O)cc1	i
CCOCCOC(=O)COc1ccc(N2C(=O)c3ccccc3C2=O)cc1	0.0
CC(=O)c1ccc(NC(=O)C2CC(=O)N(Cc3ccccc3)C2)cc1 (stereo unspecified)	i
Cc1cc(C)nc(NS(=O)(=O)c2ccc(NC(=O)CCC3COc4ccccc4O3)cc2)n1 (stereo unspecified)	1.6
Cc1nc(N)sc1-c1csc(N(C)c2ccc(O)cc2)n1	i
CCOC(=O)c1ccc(N2C(=O)CC(SCC(N)C(=O)OCC)C2=O)cc1 (stereo unspecified)	1.6
O=C(COc1ccc(Br)cc1)N1CCN(c2ccccc2)CC1	0.8
COc1ccc(C(=O)O)cc1S(=O)(=O)N(C)CCc1cccnc1	i
COc1ccc(CNc2nc(-c3ccccc3)nn2C(=O)c2cccs2)cc1	i
CCn1c(-c2cc3c(C(F)(F)F)nn(C)c3s2)n[nH]c1=S	i
COc1ccc(CSc2n[nH]c(C)n2)cc1Br	0.9
COc1ccc(N2C(=O)CC(N3CCC(O)(c4cccc(C(F)(F)F)c4)CC3)C2=O)cc1 (stereo unspecified)	i
Cc1ccc(C2CC(=O)NC3=C2C(=O)CCC3)cc1Br (stereo unspecified)	i
CC(=O)c1c(N2CCN(C(=O)c3ccco3)CC2)nc(=S)n(-c2ccccc2)c1C	1.9
CC1(C)CC(=O)C2=C(C1)N(Cc1ccccc1)C(=O)C2(O)C(F)(F)F (stereo unspecified)	i
O=C(c1cc(-c2ccccc2)on1)N1CCN(C(=O)c2ccco2)CC1	0.1
CCCNC(=O)c1cc2c3ccccc3n(C)c2s1	i
CCSc1nc2c(sc3ccccc32)c(=O)n1C(C)C	1.1
c1cc(CNC2=NCCCCC2)ccn1	0.1
COC1(c2ccccc2)NC(=S)NN=C1c1ccccc1 (stereo unspecified)	i
CCOC(=O)CSC1=C(C#N)C(c2ccc(C)cc2)C(C(=O)OC)C(=O)N1 (stereo unspecified)	i
CCOc1cccc(NC(=O)C2CC(=O)N(C)C(=Nc3ccccc3)S2)c1 (stereo unspecified)	2.2
CCCCCn1c(CN2CCN(C(=O)OCC)CC2)nc2c1c(=O)[nH]c(=O)n2C	0.0
COc1ccc(Cn2nnc3c(=O)[nH]c(C4CCN(C(=O)c5ccccc5Cl)CC4)nc32)cc1	1.7
CCOC(=O)c1ccc(N2C(=O)CC(N3CCCC(C)C3)C2=O)cc1 (stereo unspecified)	i

Continued, overlapping the part above by three compounds.
SMILES	H5N1 antiviral
CCCCCn1c(CN2CCN(C(=O)OCC)CC2)nc2c1c(=O)[nH]c(=O)n2C	0.0
COc1ccc(Cn2nnc3c(=O)[nH]c(C4CCN(C(=O)c5ccccc5Cl)CC4)nc32)cc1	1.7
CCOC(=O)c1ccc(N2C(=O)CC(N3CCCC(C)C3)C2=O)cc1 (stereo unspecified)	i
CC(=O)N1CCN(Cc2cc(=O)n3cc(Cl)c(C)c(Cl)c3n2)CC1	2.7
CCOc1ccccc1N1C(=O)c2ccc(C(=O)O)cc2C1=O	i
Fc1ccccc1CNc1ccc(Cl)cc1	i
CCOC(=O)c1[nH]c(C)c(C(=O)OCc2c(C)noc2C)c1C	i
CNc1nc(-c2ccccn2)nnc1-c1ccccc1	i
Cc1cccc(-c2noc(C3CCCCC3)n2)c1	i
C=CCCCOc1ccc(C(=O)O)cc1	0.5
O=C1C2C3C=CC(CC3)C2C(=O)N1/N=C/c1ccccc1O (stereo unspecified)	0.3
COC(=O)C1=C(C)N(CCc2ccccc2)C(=O)C1(NS(=O)(=O)c1ccc(NC(C)=O)cc1)C(F)(F)F (stereo unspecified)	i
Cc1nnc(NC(=O)CSC2CCCCC2)s1	1.4
COc1ccccc1OCCCCOc1ccccc1F	0.7
CN(C)c1nc(Cl)cc(N2CCOCC2)n1	0.3
COC(=O)C(C)n1cnc2c(nnn2-c2ccc(OC)cc2)c1=O (stereo unspecified)	i
CCOC(=O)C(=CNc1cc(C)nn1C(C)(C)C)C(=O)OCC	0.5
O=C(COc1ccccc1)Nc1ccccc1N1CCCCC1	1.9
O=C(CSc1nnc(Cn2nnc(-c3ccccc3)n2)n1-c1ccccc1)Nc1ccccc1	i
CNC(=O)c1ccc(-c2sc3nc(N4CCOCC4)c4c(c3c2N)CCCC4)o1	3.1
CCCCC(=O)Nc1nc(C)c(-c2csc(Nc3ccc(Cl)cc3)n2)s1	i
CCOC(=O)N1CCN(C(=O)COc2ccc(S(=O)(=O)Nc3ccc(OCC)cc3)cc2)CC1	1.5
CCN(CC)CC(=O)NCc1cc(-c2ccc(OC)cc2)no1	0.3
COc1ccc2[nH]cc(C(=O)CNc3nc(C)cs3)c2c1	i
CCOC(=O)CCc1c(C)nc2ncnn2c1C	i
Cc1ccc(NC(=O)CSc2nnc(-c3ccccc3Br)o2)cc1C	i
O=C(CSc1nnc(CNC(=O)c2cccs2)o1)NC1CCCC1	0.8
CC(=O)c1c(C)nc(-c2ccccc2)n1O	i

New compounds follow
SMILES	H5N1 antiviral
Cc1ccc(NC(=O)Cn2c(=O)oc3cc(S(=O)(=O)N4CCC(C)CC4)ccc32)cc1C	i
CC(C)=C1C2C=CC1C(C(=O)Nc1cc(C)ccc1C)C2C(=O)O (stereo unspecified)	i
CCOC(=O)N1CCC(NC(=O)CCCN2C(=O)CSc3ncccc32)CC1	i
COc1cccc(Sc2ccccc2CN(C)C)c1	1.2
Cc1cc(C)cc(NC(=O)CSc2nnc(-c3ccccc3C)o2)c1	i
COC(=O)[C@H](CCSC)NC(=O)Nc1ccc(C)cc1C	i
Cc1cc(C)c2c(c1)/C(=C/C(=O)c1ccc(Br)s1)C(=O)N2	i
Cc1cc(NC(=O)c2ccc(N(C)S(=O)(=O)c3ccccc3)cc2)no1	0.7
COc1ccccc1N1CCN(C(=O)C(Cc2ccccc2)NC(=O)C2CCCCC2)CC1 (stereo unspecified)	i
CC(C)CC(c1nnnn1Cc1ccco1)N1CCN(c2cccc(Cl)c2)CC1 (stereo unspecified)	0.5
C=C1c2ccc(C)cc2NC(=O)N1c1ccccc1	0.4
COC(=O)c1ccc(NC(=O)c2ccco2)cc1	i
O=C(CSc1nnc(-c2ccco2)n1Cc1ccco1)NCc1cccs1	0.5
Cc1ccc(N(CN2CCCC2=O)C(=O)c2ccc(C)c(C)c2)cc1	0.8
O=C(O)CCCC(=O)NS(=O)(=O)c1ccc(Cl)cc1	0.5
CCOC(=O)CSC1=C(C#N)C(c2ccccc2Cl)C(C(=O)OC)C(=O)N1 (stereo unspecified)	i
Cc1cc(N2CCCC2=O)cc(C)c1S(=O)(=O)NCCOc1ccccc1	2.5
CCC(C)Sc1nc2c(cnn2-c2ccc(C)cc2)c(=O)[nH]1 (stereo unspecified)	2.6
COc1cc(C2C(C(C)=O)=C(O)C(=O)N2c2ccc(Br)cn2)ccc1O (stereo unspecified)	0.3
COc1ccc(C(=O)NCCCN2CCOCC2)cc1OC	i
COc1ccc(NC(=O)c2cc(-c3ccc(OC)c(OC)c3)on2)cc1OC	i
CCO/C(C)=N/n1c2nc3ccccc3nc2c2c(=O)n(CC(C)C)c(C)nc21	i
CC(C)C[C@H](NC(=O)OC(C)(C)C)C(=O)N1CCC(C(=O)N[C@@H](Cc2ccccc2)C(=O)O)CC1	i
O=C(Nc1ccccc1[N+](=O)[O-])c1nc[nH]c1C(=O)NCCO	0.8
COc1cc(-c2nnc(SC(C)C(=O)Nc3c(C)n(C)n(-c4ccccc4)c3=O)o2)cc(OC)c1OC (stereo unspecified)	0.3

In the list so far, these contain a cyano group:
SMILES	H5N1 antiviral
CCOC(=O)CSC1=C(C#N)C(c2ccc(C)cc2)C(C(=O)OC)C(=O)N1 (stereo unspecified)	i
CCOC(=O)CSC1=C(C#N)C(c2ccccc2Cl)C(C(=O)OC)C(=O)N1 (stereo unspecified)	i

Other structures.
SMILES	H5N1 antiviral
O=C(CCCn1c(=O)[nH]c2cc(Cl)ccc2c1=O)NC1CCCCCCC1	0.9
O=C(Cn1nc(-c2ccccc2F)ccc1=O)NCc1ccc2c(c1)OCO2	0.6
CCCCOc1ccc(CNC(=O)NS(=O)(=O)c2ccc(OCC)cc2)cc1	0.2
O=C(CC(=O)NCc1cccnc1)NCc1cccnc1	0.2
COc1ccc(CNC(=O)c2ccc3c(c2)N(C)C(=O)CS3=O)cc1 (stereo unspecified)	1.5
CCOC(=O)Cc1csc(SC(C)C(=O)Nc2ccc(NC(C)=O)cc2)n1 (stereo unspecified)	i
Nc1nonc1-c1noc(N2CCOCC2)n1	0.4
Cc1ccc(S(=O)(=O)Nc2ccc3nc(N)sc3c2)cc1	3.0
Cc1cccn2c(/C=N/OCc3ccc(F)cc3)c(-c3ccc(Cl)cc3)nc12	0.1
Cc1ccc(/C=N/c2sc3c(c2C#N)CCC3)s1	i
Cc1ccc2nc(C)cc(N3CCOCC3)c2c1	0.9
CN(C)C(=S)NC1(C)CCS(=O)(=O)C1 (stereo unspecified)	1.4
Cc1ccccc1N1CCN(C(=O)CCN2C(=O)c3ccccc3C2=O)CC1	i
COc1ccc(-c2cc(C(F)(F)F)n3ncc(C(=O)NCC4CCCO4)c3n2)cc1 (stereo unspecified)	0.3
O=C(NNc1cccc(Cl)n1)Nc1cccc(Cl)c1	i
COc1cc2cc(CN(Cc3nnnn3Cc3ccccc3)CC3CCCO3)c(=O)[nH]c2cc1OC (stereo unspecified)	1.4
CCCC(c1nnnn1Cc1cccs1)N1CCN(c2ccc(OC)cc2)CC1 (stereo unspecified)	i
Cc1ccc(C(=O)COC(=O)c2ccccc2N2C(=O)C3C4CCC(C4)C3C2=O)cc1C (stereo unspecified)	i
O=C1CN(C(=O)COC(=O)COc2ccc3c(c2)CCC3)c2ccccc2N1	0.9
Cc1cnc(C(=O)N2CCN(S(=O)(=O)c3ccc4ccccc4c3)CC2)cn1	0.2
Cc1ccc(CNC(=O)c2ccc(N3CCCC3=O)cc2)cc1	i
COc1cccc(-n2c(C)nn(C)c2=O)c1	i
CCOC(=O)c1cc(-c2ccccc2)sc1NC(=O)CC(C)C	i
O=C(CNC(=O)c1ccccc1F)OC(C(=O)Nc1cc(C(F)(F)F)ccc1Cl)c1ccccc1 (stereo unspecified)	i
COc1ccccc1NC1=NCC(=O)N1Cc1ccccc1	0.5

Structures above containing a furan ring, fused or not, in the order listed:
SMILES	H5N1 antiviral
CC(=O)c1c(N2CCN(C(=O)c3ccco3)CC2)nc(=S)n(-c2ccccc2)c1C	1.9
O=C(c1cc(-c2ccccc2)on1)N1CCN(C(=O)c2ccco2)CC1	0.1
CNC(=O)c1ccc(-c2sc3nc(N4CCOCC4)c4c(c3c2N)CCCC4)o1	3.1
CC(C)CC(c1nnnn1Cc1ccco1)N1CCN(c2cccc(Cl)c2)CC1 (stereo unspecified)	0.5
COC(=O)c1ccc(NC(=O)c2ccco2)cc1	i
O=C(CSc1nnc(-c2ccco2)n1Cc1ccco1)NCc1cccs1	0.5

Later entries
SMILES	H5N1 antiviral
Cc1cc(NC(=O)c2cc3ncc(Br)cn3n2)no1	1.1
O=C(COC(=O)c1ccccn1)NCc1ccccc1	i
Nc1nc2n(c1C(=O)c1ccccc1)CCC2	1.0
CC1(C)CC(=O)C/C(=N/NC(=O)CCCOc2ccc(Cl)cc2Cl)C1	i
Clc1ccc(OCc2nc(-c3ccc(Br)o3)no2)cc1	i
COc1cc(Br)cc(/C=N/c2ncn[nH]2)c1O	1.3
c1ccc(CN2CCC(Nc3nc(-c4ccccc4)nc4ccccc34)CC2)cc1	i
Cn1cc(C(=O)N/N=C/C(Br)=C\c2ccccc2)ccc1=O	0.7
Cc1ccc(-n2c(=O)cc(N3CC(C)CC(C)C3)[nH]c2=O)cc1 (stereo unspecified)	i
COCCn1c(SCc2nc3ccccc3s2)nc2ccccc21	i
CC1(C)Cc2c(C#N)c(OCC(=O)c3ccc(Cl)cc3)nc(-c3ccoc3)c2CO1	i
COc1ccc(Cc2nnc(SCC(=O)N3CCN(c4ccccc4)CC3)o2)cc1	2.6
Cc1ccc(NC(=O)c2ccc(N/N=C/c3cccc(O)c3)c([N+](=O)[O-])c2)cc1	0.6
C1=C(CCNC2=NCCCCC2)CCCC1	i
CCN(CC)C(=O)c1cn(C)c2ccc(S(=O)(=O)N(CC)CC)cc2c1=O	0.5
O=S(=O)(c1ccc(S(=O)(=O)N2CCCC3(CCCCC3)C2)cc1)N1CCCCC1	0.4
Cc1c(NC(=O)c2ccccc2F)c(=O)n(-c2ccccc2)n1C	i
Cc1csc(NC(=O)CCSCCc2ccccn2)n1	i
O=C(Cn1nc(Cl)nc1Cl)c1cc2ccccc2oc1=O	2.0
O=C(c1cnn2cccnc12)N1CCN(c2ccccc2)CC1	i
COc1ccc(CNn2c(-c3cccc(C)c3)nc3ccccc3c2=O)cc1OC	i
Cc1nn(-c2ccccc2)c(Cl)c1C(=O)N1CCN(c2ncnc3c2cnn3-c2ccccc2)CC1	i
CCC(C(=O)NC(C)(C)C)N(C(=O)Cn1nnc(-c2cccs2)n1)c1cnc2ccccc2c1 (stereo unspecified)	0.6
CC1CN(Cc2nc3c(c(=O)[nH]c(=O)n3C)n2CC(N)=O)CC(C)O1 (stereo unspecified)	1.1
O=S(=O)(c1ccccc1)c1cnc(-c2cccnc2)nc1-c1ccc(Cl)c(Cl)c1	2.1

Other records:
SMILES	H5N1 antiviral
COCCNC(=O)c1c[nH]c2ccc(S(=O)(=O)N3CCC4(CC3)OCCO4)cc2c1=O	i
CCOc1ccc(-n2c(C)nc3c(cnn3-c3ccc(Cl)cc3)c2=O)cc1	i
CC1=NN(c2ccccc2)C(=O)/C1=C\N1CC(C)OC(C)C1 (stereo unspecified)	0.4
Cc1nc2ccccc2n1/C(=N/S(=O)(=O)c1ccc(Br)cc1)c1ccccc1	1.3
Cc1ccc(S(=O)(=O)N(C)CCCC(=O)N2CCN(c3ccccn3)CC2)cc1	0.1
CCOC(=O)c1nc(N)c(=O)n(-c2ccccc2)n1	0.3
CN(C)Cc1ccccc1OC(=O)N(C)C	0.4
CC(C)Sc1nc(NCc2ccco2)c2c3c(sc2n1)COC(C)(C)C3	0.4
O=C(CSc1nc2ccccc2s1)N1CCOCC1	i

4 of the compounds above, field by field:
Molecule: Cc1ccccc1N1CCN(C(=O)CCN2C(=O)c3ccccc3C2=O)CC1
  H5N1 antiviral: i

Molecule: COc1ccc(-c2cc(C(F)(F)F)n3ncc(C(=O)NCC4CCCO4)c3n2)cc1 (stereo unspecified)
  H5N1 antiviral: 0.3

Molecule: O=C(NNc1cccc(Cl)n1)Nc1cccc(Cl)c1
  H5N1 antiviral: i

Molecule: COc1cc2cc(CN(Cc3nnnn3Cc3ccccc3)CC3CCCO3)c(=O)[nH]c2cc1OC (stereo unspecified)
  H5N1 antiviral: 1.4
